Sa RN4220 lethal: S. aureus RN4220 growth inhibition. 330,000 compounds, 0.33% hits. OD600, 16 h. inhibition, % (no concentration beside the values);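 active means z-score of -3 or lower and OD600 up to 0.18 on both plates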;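 further: plate controls were untreated cells for no effect and reference antibiotic for full effect; stock transfer was 100 nL into about 80 µL; one replicate is shown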
BJeLR lethal: BJeLR cell viability loss; 300,000 compounds, 0.17% hits; BJeLR (HRASV12) viability, CellTiter-Glo ATP luminescence, 48 h; reference of the scale not given here; inhibition, % (no concentration beside the values);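 active means replicate mean above 50%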;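 further: 50 nL library stock added to about 25 µL; numbers are from one replicate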
Sa ugtP lethal: kills S. aureus RN4220 lacking UgtP; S. aureus RN4220 ugtP deletion, OD600 growth, 16 h; some inactives read as strong as hits; growth inhibition, % (no concentration beside the values); 330,000 compounds, 0.54% hits;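 active means z-score under -3 and OD600 up to 0.15 on both plates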;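 further: plate controls were untreated wells for no effect and antibiotic for full effect; wells of about 80 µL received 100 nL stock; the first replicate is given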
Mtb hypoxia inh: Mtb hypoxia fluorescent reporter inhibition. fluorescence inhibition, % (no concentration beside the values). 300,000 compounds, 0.1% hits. AID 1159583. M. tuberculosis hypoxia-regulated fluorescent reporter, fluorescence;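 active means 35 to 45% if threefold the growth effect, above 45% if 1.5-fold the growth effect; inactive means the rest, general growth blockers included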;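 further: wells of about 50 µL received 100 nL stock; 0% = vehicle wells and 100% = reference inhibitor wells; whole bacteria with a GFP reporter of the hypoxia response; strong numbers were not always called active; many hits fall short of the cut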
PrP 5UTR inh: suppresses PrP 5' UTR mRNA reporter expression; cell-based PrP 5' UTR mRNA reporter, plate reader; inhibition, % (concentration not given with the values); 340,000 compounds, 0.35% hits; AID 488862;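 active means every replicate at 50% or more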;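 further: 0 = median of the neutral control wells; tested in H4 reporter cells; numbers are from one replicate; inactives centre near -14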
Autofluor counter: flagged as autofluorescent in microsphere protease counterscreen | compound autofluorescence counterscreen, microsphere flow cytometry; stronger effect = higher value | fluorescence intensity (concentration not given with the values) | 360,000 compounds, 3.1% hits | AID 624483;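 active means at least 3 SD above the mean of all compounds, about 16000 in these data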;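 further: 100 nL of 1 mM stock went into each well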
Mtb hypoxia inh growth: recorded beside Mtb hypoxia inh, whose call it bears; growth inhibition, %; measured here: M. tuberculosis growth (absorbance);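 0% = vehicle and 100% = reference antibiotic; read after six days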
* marks the source's active call; other numbers are inactive results; / = no result given.

Values run as follows: Autofluor counter	Mtb hypoxia inh	Sa RN4220 lethal	Sa ugtP lethal	BJeLR lethal	Mtb hypoxia inh growth	PrP 5UTR inh
CCCn1c(N)c(NCCN2CCOCC2)c(=O)n(CC(=O)NCc2ccccc2)c1=O
→ 3998	-2	-1.0	1	-4	-4	-22
O=C(CSc1nn(-c2ccc(F)cc2)c(=S)s1)NC1CCS(=O)(=O)C1 (stereo unspecified)
→ 4414	-3	3.2	4	-3	-8	-11
CSCCC(NC(=O)c1ccccc1)C(=O)NCc1ccco1 (stereo unspecified)
→ 6273	12	7.3	-1	-5	13	1
Cn1cc(S(=O)(=O)N2CCN(c3cccc(C(F)(F)F)c3)CC2)c(=O)n(C)c1=O
→ 5366	-4	-11	8	-9	10	-8
O=C(CCOc1ccccc1)Nc1ccc(Cl)c(S(=O)(=O)N2CCOCC2)c1
→ 6704	3	2.8	3	/	0	-1
CCC(=O)N1CCc2cc(Br)cc(S(=O)(=O)NCc3ccccc3OC)c21
→ 3750	-2	2.7	13	12	5	-11
CCOC(=O)c1c(CC(C)C)csc1N=CC1C(=O)CC(C)(C)CC1=O
→ /	5	5.5	-7	/	1	/
CCOc1ccc(S(=O)(=O)NCCC2=CCCCC2)c2ccccc12
→ 24639*	7	10	7	2	1	-28
CCOC(=O)c1cc(-c2ccccc2)n(CC2CC(c3ccc(OC)cc3)=NO2)n1 (stereo unspecified)
→ 3676	16	6.0	9	3	3	-2
Cc1ccccc1NC(=O)CON=C(N)c1ccccc1
→ 9050	7	0.1	-7	/	6	-20
CCCCCc1c(O)nc(SCCN(CC)CC)[nH]c1=O
→ 3495	2	-3.8	2	5	-14	-19
CCN(CC1CCCO1)C(=O)CCc1nnc(CCc2ccccc2OC)o1 (stereo unspecified)
→ 5193	9	3.3	1	-13	-4	-7
Nc1ccc(C(=O)NCCCCCCNC(=O)c2ccc(N)cc2)cc1
→ 3156	-3	4.2	15	-4	4	-24
CC(=O)c1c(C)nc2ccccn12
→ 9036	1	3.0	0	0	-4	-31
Cc1nc2ccc(Cl)cc2c(=O)n1-c1ccc([N+](=O)[O-])cc1
→ 4219	2	2.6	9	-5	0	-14
COc1ccccc1NC(=O)Nc1ccnn1C1CCCCC1
→ 2808	-4	8.3	12	8	2	-11
O=C(O)CC1c2cc(F)ccc2S(=O)(=O)N1C1CCCCC1 (stereo unspecified)
→ /	-1	-0.1	-3	/	7	/
O=C(CNC(=O)c1ccc(Br)o1)NCc1ccc2c(c1)OCO2
→ 4938	/	-0.7	-2	4	/	-5
O=C(NCCOc1ccccc1Cl)c1cc(F)c(F)cc1Cl
→ 11121	3	6.2	-2	0	10	-25
CC1CCN(C(C)C(=O)Nc2ccc(S(=O)(=O)N3CCCC3)cc2)CC1 (stereo unspecified)
→ 3039	3	3.9	8	/	3	-3
Cc1ccc2nc(-c3ccc(NC(=O)CCN4C(=O)c5ccccc5C4=O)cc3)sc2c1
→ 2091	/	/	/	10	/	18
CCOC(=O)C1=C(c2ccccc2)NC(=S)NC1c1ccc(Cl)c([N+](=O)[O-])c1 (stereo unspecified)
→ /	5	-0.3	-7	6	3	/
Cc1csc(NC(=O)c2cc(-c3ccncc3)nc3ccccc23)n1
→ 4549	-2	0.3	6	-2	-4	-15
O=C(NCc1cccnc1)C1CCC(CNS(=O)(=O)c2ccc(Cl)cc2)CC1 (stereo unspecified)
→ 4267	8	0.3	2	4	4	-33
CCCn1c(=O)[nH]c(=O)c2c1nc(-c1ccc(OC(F)(F)C(F)C(F)(F)F)cc1)n2CCOC (stereo unspecified)
→ 3271	-2	-8.6	-8	-9	16	-4
COc1ccc(Br)cc1S(=O)(=O)N1CC(C)OC(C)C1 (stereo unspecified)
→ 3252	16	3.8	4	-6	6	-14
COc1ccc(/C=C/c2nc3cc(-c4ccccc4)ccc3o2)cc1O
→ 2290	12	-14	75	7	0	-42
Cc1ccc2cc(CN(CC3CCCO3)S(=O)(=O)c3c(C)ccc4nsnc34)c(=O)[nH]c2c1 (stereo unspecified)
→ 10779	1	5.5	7	-5	-2	-16
CCC(=O)NNc1cccc(Cl)n1
→ 2839	/	4.1	3	2	/	-18
CCCc1nc2ccccc2c(=O)n1-c1ccc(C(=O)OCC)cc1
→ 4159	-8	9.7	6	7	-13	-20
O=S(=O)(Nc1ccc(-c2nc3cccnc3s2)cc1)c1cccs1
→ 4609	7	-3.6	16	-6	16	-9
CCN1CCN(c2nc(Nc3ccc(OC)cc3)nc(N)c2[N+](=O)[O-])CC1
→ 3835	2	2.3	-1	15	3	/
O=C(CCSc1ccc(Br)cc1)c1ccc(O)cc1
→ 3980	9	-1.3	52	-9	3	-22
CCCCNc1cc(=O)n(C)c(=O)[nH]1
→ 6933	/	2.4	11	2	/	-24
CCCCSc1nnc(NC(=O)CCc2ccccc2)s1
→ 4733	/	3.6	11	9	/	-23
COc1ccccc1CN(C)C(=O)c1cc(C)nc2ccccc12
→ 3032	-1	4.3	-3	-2	0	-9
CCOC(=O)C(NC(=O)c1ccc(OC)cc1)(Nc1cc(C)on1)C(F)(F)F (stereo unspecified)
→ 3835	/	4.4	10	-6	/	-20
COc1cccc(Sc2ccccc2C=NNC(N)=O)c1
→ /	4	7.0	-2	/	3	/
O=C(C(=O)N1CC=C(c2ccccc2)CC1)c1c[nH]c2ccccc12
→ 2101	5	2.7	-15	-10	6	-20
O=C(COc1cc(Cl)c(Cl)cc1Cl)NC(=O)Nc1ccc2c(c1)OCCO2
→ 2629	-1	5.1	2	-6	2	-64
CN(c1ccccc1)S(=O)(=O)c1cccc(C(=O)Nc2nn[nH]n2)c1
→ 5264	14	3.6	-1	-3	-1	-12
Cc1cccn2c(N)c(-c3ccccc3)nc12
→ 4144	/	-0.4	-1	2	/	-24
Cc1ccccc1NC(=O)COC(=O)c1cccc(S(=O)(=O)N2CCCCC2)c1
→ 6232	0	-0.9	0	/	1	-3
COc1ccc(OC)c(C(=O)c2coc3cc(Br)c(O)c(Br)c23)c1
→ 5442	21	2.8	-5	12	2	-30
COc1ccc(C2=NS(=O)(=O)N(C)C(C(=O)Nc3ccc(F)cc3F)=C2)cc1
→ 5304	8	-8.0	-7	-14	4	-20
CCOC(=O)C1C(=O)C=C(c2ccc(C)cc2)CC1c1cccc([N+](=O)[O-])c1 (stereo unspecified)
→ 1982	6	-2.6	-6	-1	0	-58
NS(=O)(=O)c1ccc(-c2ccc(C=C3C(=O)NC(=O)NC3=O)o2)cc1
→ 2989	9	-0.7	9	6	1	9
CC1CCCCC1NC(=O)COC(=O)c1ccc2ccccc2n1 (stereo unspecified)
→ 6790	17	1.4	4	1	2	-23
O=c1c2ccccc2nc(-c2ccc(F)cc2)n1NCc1ccccc1O
→ 2781	1	2.0	5	1	14	-17
CC1=C([N+](=O)[O-])C(c2ccccc2)NC(=O)N1 (stereo unspecified)
→ 4021	0	4.6	8	-5	5	-11
CCCC/C(=N\O)c1c[nH]c2ccccc12
→ 6893	/	/	/	16	/	-15
CCCC(C)C(=O)Nc1ccc(S(N)(=O)=O)cc1 (stereo unspecified)
→ 4480	7	4.1	2	-7	11	3
CCOC(=O)c1c(NC(=O)/C=C\C(=O)O)sc(C)c1-c1ccccc1
→ 3440	/	/	/	1	/	-15
CC(Oc1ccc(-c2ccccc2)cc1)C(=O)NN=Cc1cccnc1 (stereo unspecified)
→ /	-6	11	-5	/	13	/
CC(=O)OC1CCC2(C)C(CCC3C2CC(=O)C2(C)C3CC(C(C(C)=O)C(C)=O)C2C(C)=O)C1 (stereo unspecified)
→ 3698	5	3.4	4	/	8	-26
COc1ccc(N(CC(=O)Nc2cccc([N+](=O)[O-])c2C)S(C)(=O)=O)cc1OC
→ 2161	14	2.1	2	0	5	-7
Cc1cc(S(=O)(=O)Nc2c(C)nc3nc[nH]n3c2=O)ccc1F
→ 4203	5	4.1	0	-6	-3	-16
O=C(Nc1ccc(OC(F)F)cc1)c1cc(S(=O)(=O)N2CCCCC2)ccc1N1CCOCC1
→ 3824	-3	-0.6	0	/	0	-15
COc1ccc(NS(=O)(=O)c2cccc(C(=O)NN=Cc3cc(Br)c(O)c(Br)c3)c2)cc1
→ 4278	7	13	-1	/	1	-30
C=CCn1c(SCC(=O)c2ccc(O)c(O)c2)nnc1-c1cccc(C)c1
→ 3842	8	7.5	6	/	5	0

(next part)
Values run as follows: Autofluor counter	Mtb hypoxia inh	Sa RN4220 lethal	Sa ugtP lethal	BJeLR lethal	Mtb hypoxia inh growth	PrP 5UTR inh
CCCCCn1c(=O)c(C(=O)NCCc2ccccc2)c(O)c2ccccc21
→ 3706	8	0.2	34	-8	16	-16
O=C(O)[C@@H]1CCCN1C(=O)c1ccco1
→ 2085	9	1.6	1	-1	1	-50
COc1cccc(Nc2nnc(SCN3C(=O)c4ccccc4C3=O)s2)c1
→ 10776	10	6.1	-4	6	1	-23
CCOC(=O)c1c(C)n(COCCO)c2ccc(O)cc12
→ 8401	-2	0.4	-1	-6	0	-17
Cc1cccc(C=NN=Cc2cccc(C)c2)c1
→ /	6	3.2	10	/	7	/
COC(=O)C1SCC2C(=O)N(Cc3ccc(Cl)cc3)CC(=O)N21 (stereo unspecified)
→ 4802	-4	1.9	3	3	-7	-14
N#CC(C(=O)Oc1ccccc1)=C1C=CC=CN1
→ /	5	4.3	-4	/	1	/

Screens deposited in PubChem BioAssay by several laboratories.
